Screening data (PubChem)
Vaccinia mCherry: qHTS for Stage-Specific Inhibitors of Vaccinia Orthopoxvirus: mCherry Reporter Primary qHTS; Potency, µM (top dose mostly 36.5 µM), without a hit: at the top dose activity change, negative = inhibition, hits mostly inhibitors; 310,000 compounds, 0.63% hits; Vaccinia virus mCherry reporter infection, fluorescence; about a quarter of the inactives have no number; AID 720579, 2013; active = well fitted inhibition curve with a large enough effect; inconclusive = small, poorly fitted or top-dose-only effect; inactive = no such curve, though single readings can be large or run the other way; tested in A549 cells; note: nearly all actives have a fitted effect of over 35% in size; inactives centre near -10
VACV Venus inh: qHTS for Stage-Specific Inhibitors of Vaccinia Orthopoxvirus: Venus Reporter Primary qHTS | Vaccinia virus Venus reporter expression, fluorescence | Potency, µM (series often up to 36.5 µM), for the others: at the top dose activity change, negative = inhibition, actives largely listed as inhibitors | 330,000 compounds, 0.46% hits | AID 720580, 2013; active means well fitted inhibition curve with a large enough effect; inconclusive means small, poorly fitted or top-dose-only effect; inactive means no such curve, though single readings can be large or run the other way; tested in A549 cells; note: nearly all actives have a fitted effect of over 30% in size; inactives centre near -10
An asterisk follows results filed as active; [ ] = remark or other dose. % is set by controls: 0 for no effect and ±100 for the full control effect; potency is the fitted concentration of half-maximal effect.

Screening Cc1cc(C)cc(NC(=O)Nc2ccc3ccccc3n2)c1 returned Vaccinia mCherry -4%[7.34 µM] and VACV Venus inh -4%[7.34 µM].
For CN1C(=O)C(O)(CC(=O)c2ccc3c(c2)OCO3)c2ccccc21 (stereo not given) the results were Vaccinia mCherry -7% and VACV Venus inh 0%.
For CCCCOc1ccccc1C1NC(=O)NC(C)=C1C(=O)OCc1ccco1 (stereo not given) the results were Vaccinia mCherry -25% and VACV Venus inh 36%[activator].
`COc1cc(OC)c(NC(C)C(=O)N2CCCC2)cc1Cl` (stereo not given) gave Vaccinia mCherry -15% and VACV Venus inh -17%.
Screening CCOc1ccc(S(=O)(=O)N2CCN(Cc3ccccc3)CC2)cc1 returned Vaccinia mCherry -15% and VACV Venus inh -11%.
CC(C)(NO)/C(=N/O)c1ccc(Br)cc1 was read as Vaccinia mCherry -7% and VACV Venus inh -3%.
Screening CN(C)CCNc1ncnc2c1ncn2[C@H]1CN(Cc2ccc3c(c2)OCO3)C[C@@H](CO)O1 returned Vaccinia mCherry 47%[activator] and VACV Venus inh 3%.
`COc1ccc(C(=O)NCCCNC(=O)c2ccccn2)cc1Br` gave Vaccinia mCherry -5% and VACV Venus inh -7%.
COc1cc2c(cc1OC)C(c1ccccc1)N(C(=O)c1ccco1)CC2 (stereo not given) was read as Vaccinia mCherry -8% and VACV Venus inh -3%.
For C[C@H](NC(=O)c1[nH]cnc1C(=O)Nc1ccccc1)c1ccccc1 the results were Vaccinia mCherry inconclusive and VACV Venus inh inconclusive.
`O=C(NC1CCCCCC1)C1C2C=CC3(CN(Cc4cccnc4)C(=O)C13)O2` (stereo not given) gave Vaccinia mCherry -3% and VACV Venus inh -3%.
CCCCn1cc(S(=O)(=O)c2ccc(F)cc2)c(=O)c2ccccc21 was read as Vaccinia mCherry -6% and VACV Venus inh -7%.
O=C(NCCCc1ccccc1)c1ccc([N+](=O)[O-])cc1Cl was read as Vaccinia mCherry -21% and VACV Venus inh -12%.
`CCCNS(=O)(=O)c1ccc(CCC(=O)N2CCN(c3ccc(F)cc3)CC2)cc1` gave Vaccinia mCherry -7% and VACV Venus inh -20%.
Screening CC[C@@H](C)[C@@H]1CN([C@@H](CN2CCC[C@H]2CN2C(N)=NC[C@H]2CC(C)C)C(C)C)C(=N)N1CCc1ccc(Cl)c(Cl)c1 returned Vaccinia mCherry -2% and VACV Venus inh inconclusive.
`COc1ccc(NC(=O)c2ccccc2SC)cc1OC` gave VACV Venus inh -5%.
Screening CCCn1c2ccc(/C(C)=N\O)cc2c2cc(/C(C)=N/O)ccc21 returned Vaccinia mCherry -23% and VACV Venus inh -29%.
`CCOC(=O)N1CCN(C(=O)C2CCN(Cc3ccc(OC)cc3OC)CC2)CC1` gave Vaccinia mCherry -14% and VACV Venus inh -13%.
For Cc1cccc(N2CCN(c3ccc4cc(S(=O)(=O)N5CCCCC5)ccc4n3)CC2)c1C the results were Vaccinia mCherry inactive and VACV Venus inh -12%.
Screening C#CCN(C[C@@H]1[C@@H](OC(=O)NCC2CCCCC2)[C@@H](OC(=O)NCC2CCCCC2)Cn2c(=O)ccc(=O)n21)S(=O)(=O)c1ccc(C)cc1 returned Vaccinia mCherry inconclusive and VACV Venus inh 7.9µM*.
For COc1cccc(S(=O)(=O)Nc2ccc3c(c2)OCCO3)c1 the results were Vaccinia mCherry -15% and VACV Venus inh -10%.
`CN(CC(=O)Nc1ccc(F)cc1)C(=O)c1ccncc1` gave Vaccinia mCherry -16% and VACV Venus inh -8%.
`CC(C)CCOP(N)(=O)Oc1ccccc1Cl` (stereo not given) gave Vaccinia mCherry inactive and VACV Venus inh -15%.
Screening Cc1[nH]n(-c2ccc(Cl)cc2)c(=O)c1C(=O)c1ccccc1 returned Vaccinia mCherry inactive and VACV Venus inh -25%.
Screening COc1ccc(CC(=O)OCC(=O)NCCNC(=O)COC(=O)Cc2ccc(OC)cc2)cc1 returned Vaccinia mCherry -19% and VACV Venus inh -5%.
Screening CCCCn1c(N)c(N(CC(C)C)C(=O)c2cccc(S(=O)(=O)N(C)c3ccccc3)c2)c(=O)[nH]c1=O returned Vaccinia mCherry inactive and VACV Venus inh -12%.
Screening COc1ccc(C(CC(=O)N2CCCC2)c2c(OC)cc(OC)c3ccc(=O)oc23)cc1 (stereo not given) returned Vaccinia mCherry -7% and VACV Venus inh -13%.
COc1cc(N=Nc2ccccc2C(=O)O)ccc1O was read as Vaccinia mCherry inactive and VACV Venus inh -3%.
For CN(CC(=O)Nc1ccccc1Cl)C(=O)CCSc1ccc(F)cc1 the results were Vaccinia mCherry -26% and VACV Venus inh -30%.
O=C(COc1ccccc1Cl)Nc1ccc2oc(=O)ccc2c1 was read as Vaccinia mCherry 27% and VACV Venus inh -2%.

In the list so far, 3 have an NH in an aromatic ring.
For C[C@H](NC(=O)c1[nH]cnc1C(=O)Nc1ccccc1)c1ccccc1 the results were Vaccinia mCherry inconclusive and VACV Venus inh inconclusive.
Screening Cc1[nH]n(-c2ccc(Cl)cc2)c(=O)c1C(=O)c1ccccc1 returned Vaccinia mCherry inactive and VACV Venus inh -25%.
Screening CCCCn1c(N)c(N(CC(C)C)C(=O)c2cccc(S(=O)(=O)N(C)c3ccccc3)c2)c(=O)[nH]c1=O returned Vaccinia mCherry inactive and VACV Venus inh -12%.

(continued)
`Clc1ccc2nc(C3CCN(Cc4nnnn4C4CCCCC4)CC3)[nH]c2c1` gave Vaccinia mCherry inconclusive and VACV Venus inh -28%.
For Cc1cc(=O)[nH]c(SCC(=O)NC2CCCCC2)n1 the results were Vaccinia mCherry -17% and VACV Venus inh 6%.
Cc1ncc(CO)n1Cc1ccc(Cl)cc1 was read as Vaccinia mCherry -20% and VACV Venus inh -14%.
`COc1cccc(/C=N/n2c(C)nc3ccccc3c2=O)c1O` gave Vaccinia mCherry -3% and VACV Venus inh -14%.
For CCOC(=O)C1CCN(C(=O)c2sc3nc(-c4ccccc4)cn3c2C)CC1 the results were Vaccinia mCherry 0% and VACV Venus inh -7%.
For COc1cccc(C(=O)C2CCCN(C(=O)CCc3scnc3C)C2)c1 (stereo not given) the results were Vaccinia mCherry -5% and VACV Venus inh -6%.
`O=C(OCC(=O)N1CCCc2ccccc21)c1cc(S(=O)(=O)N2CCOCC2)ccc1Cl` gave Vaccinia mCherry -7% and VACV Venus inh -10%.
CCCc1cc(=O)[nH]c(SCc2nc(-c3ccc(OC)cc3)no2)n1 was read as Vaccinia mCherry -7% and VACV Venus inh -8%.
Screening CC(=O)/C(=N\Nc1ccc(Cl)cc1Cl)Sc1cccc2cccnc12 returned Vaccinia mCherry 3.5µM* and VACV Venus inh 10µM*.
c1ccc(Cc2nc3ccccc3s2)cc1 was read as Vaccinia mCherry inconclusive and VACV Venus inh 16%.
Screening Cc1ccn(CC(=O)N2CCCC(N3CCN(c4cccc(C(F)(F)F)c4)CC3)C2)n1 (stereo not given) returned Vaccinia mCherry -18% and VACV Venus inh -15%.
CCOC(=O)CCCCC(=O)c1[nH]c(=O)[nH]c1CSCCO was read as Vaccinia mCherry -16% and VACV Venus inh -11%.
COc1ccc(CCNC(=O)CCc2c(C)c3cc4c(C)c(C)oc4cc3oc2=O)cc1OC was read as Vaccinia mCherry -4% and VACV Venus inh -19%.
CSCC(=O)N1CCCC(CNC(=O)c2ccc(-c3ccccc3)cc2)C1 (stereo not given) was read as Vaccinia mCherry -12% and VACV Venus inh -19%.
Screening NS(=O)(=O)c1ccc(CCNS(=O)(=O)c2ccc3c(c2)NC(=O)CO3)cc1 returned Vaccinia mCherry -12% and VACV Venus inh -8%.
Screening O=C(CNC(=O)c1ccc(Cl)c([N+](=O)[O-])c1)NCC1CCCO1 (stereo not given) returned Vaccinia mCherry -28% and VACV Venus inh -4%.
CCc1nnc(NS(=O)(=O)c2ccc(NC(=S)Nc3ccc(F)cc3)cc2)s1 was read as Vaccinia mCherry -8% and VACV Venus inh -7%.
CCN(CC)C(=O)Cn1nc(C)c2ccccc2c1=O was read as VACV Venus inh -13%.
Screening Cc1n[nH]c(=S)n1/N=C/c1c(O)ccc2ccccc12 returned Vaccinia mCherry -18% and VACV Venus inh -23%.
For O=C(CN1C(=O)COc2ccc(Cl)cc21)Nc1ccccn1 the results were Vaccinia mCherry inactive and VACV Venus inh -8%.
For Cc1cc(OCC(=O)NCCc2ccc(S(N)(=O)=O)cc2)c2c(C)c(C)c(=O)oc2c1 the results were Vaccinia mCherry -10% and VACV Venus inh -3%.
For COc1ccccc1N1CCN(C(=O)[C@@H]2CCCN2C2=NS(=O)(=O)c3ccccc32)CC1 the results were Vaccinia mCherry -15% and VACV Venus inh -5%.
`Cc1ccc(S(=O)(=O)NC2=C(N3CCN(Cc4ccccc4)CC3)C(=O)c3ccccc3C2=O)cc1` gave Vaccinia mCherry -7% and VACV Venus inh 1%.
`Cc1cccc(-c2nc3c4ccccc4nc(NCCc4ccccc4)n3n2)c1` gave Vaccinia mCherry -20% and VACV Venus inh -7%.
Cc1cccc(NC(=O)CSc2nnc(-c3ccncc3)n2CC2CCCO2)c1 (stereo not given) was read as Vaccinia mCherry -1% and VACV Venus inh -6%.
For Clc1cccc(C2NCCc3[nH]cnc32)c1 (stereo not given) the results were VACV Venus inh 13%.
For Cc1cc(C)c(C)c(S(=O)(=O)N2CCC(C(=O)Nc3ccncc3)CC2)c1C the results were Vaccinia mCherry -10% and VACV Venus inh -23%.
`CC(C)c1ccc(NC(=O)C2CCCN(S(=O)(=O)c3ccc4[nH]c(=O)oc4c3)C2)cc1` (stereo not given) gave Vaccinia mCherry 6% and VACV Venus inh -8%.
`COC(=O)NC1CCC(NC(=O)OC)CC1` (stereo not given) gave Vaccinia mCherry -8% and VACV Venus inh -6%.
`COc1ccc(-n2nc3c(c2NC(=O)C(C)Oc2ccccc2)CS(=O)C3)cc1` (stereo not given) gave Vaccinia mCherry -14% and VACV Venus inh -3%.

Six records picked at random from those above:
Screening COc1ccc(C(CC(=O)N2CCCC2)c2c(OC)cc(OC)c3ccc(=O)oc23)cc1 (stereo not given) returned Vaccinia mCherry -7% and VACV Venus inh -13%.
Screening Cc1cc(C)cc(NC(=O)Nc2ccc3ccccc3n2)c1 returned Vaccinia mCherry -4%[7.34 µM] and VACV Venus inh -4%[7.34 µM].
`COc1ccc(NC(=O)c2ccccc2SC)cc1OC` gave VACV Venus inh -5%.
For COc1cccc(S(=O)(=O)Nc2ccc3c(c2)OCCO3)c1 the results were Vaccinia mCherry -15% and VACV Venus inh -10%.
CCOC(=O)CCCCC(=O)c1[nH]c(=O)[nH]c1CSCCO was read as Vaccinia mCherry -16% and VACV Venus inh -11%.
`O=C(NC1CCCCCC1)C1C2C=CC3(CN(Cc4cccnc4)C(=O)C13)O2` (stereo not given) gave Vaccinia mCherry -3% and VACV Venus inh -3%.

Continuation.
`CCOC(=O)c1sc(=NC(=O)COc2ccccc2)n(C)c1C` gave Vaccinia mCherry -9% and VACV Venus inh -9%.
`CCOc1cc(/C=C/C(=O)N(CC)CC(=O)NCc2cccs2)cc(Cl)c1OC` gave Vaccinia mCherry -7% and VACV Venus inh 1%.
`COc1ccc(-c2c(C)nn3c(C(F)(F)F)cc(-c4ccccc4)nc23)cc1` gave Vaccinia mCherry -26% and VACV Venus inh -28%.
`CCOC(=O)C1=C(C)S/C(=C\N(C)C)C1=O` gave VACV Venus inh 3%.
`CCOc1ccc(N2C(=O)CC(NNc3nc4ccccc4s3)C2=O)cc1` (stereo not given) gave Vaccinia mCherry -22% and VACV Venus inh -15%.
`O=C(NCCCl)C1Cc2c(ccc3ccccc23)O1` (stereo not given) gave Vaccinia mCherry -8% and VACV Venus inh 2%.
Screening Cc1ccc(CCNC(=O)C2CCC(=O)N(Cc3ccccc3F)C2)o1 (stereo not given) returned Vaccinia mCherry -12% and VACV Venus inh -7%.
For CCN(CC)CCn1c2c(c(SCC(=O)Nc3ccc4c(c3)OCCO4)nc1=O)CCCC2 the results were Vaccinia mCherry -27% and VACV Venus inh -15%.
Screening CCOC(=O)C1CCCN(C(=O)c2ccc(NS(=O)(=O)c3ccc4[nH]c(=O)[nH]c4c3)cc2)C1 (stereo not given) returned Vaccinia mCherry inactive and VACV Venus inh -5%.
COc1ccc(C(=O)O/N=C2\CCCc3nonc32)cc1 was read as Vaccinia mCherry inactive and VACV Venus inh -16%.
`CC(=O)NCCCNc1ccc([N+](=O)[O-])cc1` gave Vaccinia mCherry -18% and VACV Venus inh -3%.
`COc1cc(CNCCSc2nnnn2C)ccc1OCc1ccccc1` gave Vaccinia mCherry -12% and VACV Venus inh -10%.
Screening CN(C)c1ncnc2c1NC1=C(S2)C(=NCCCC(=O)O)CC(C)(C)C1 returned Vaccinia mCherry -14% and VACV Venus inh 2%.
Screening Cc1cc(=O)[nH]c(N/N=C/c2c(C)nn(-c3ccc(F)cc3)c2Cl)n1 returned Vaccinia mCherry 1% and VACV Venus inh 0%.
Screening Cc1nc2cc(N)ccc2n1-c1ccccc1 returned Vaccinia mCherry -17% and VACV Venus inh -9%.
For CCCCNC(=O)c1ccccc1NC(=O)CCSc1ccccc1 the results were VACV Venus inh -29%.
